GIV-Gai inh = inhibitors of GIV peptide binding to Galpha-i3, primary screen, biochemical, fluorescence polarization, FITC-GIV GBA peptide, rat Galphai3; Guanine nucleotide-binding protein G(i) subunit alpha-3 (Rattus norvegicus), P08753; 90 min; stronger effect = lower value; scaled: aluminum fluoride 0%, vehicle 100%; percent of control (FP), % (concentration not given with the values); 0.42% of 210,000 active; AID 1224905, 2016;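 active = replicate mean at 85% of control or lower, very high polarization wells dropped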;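 note: wells of about 15 µL received 100 nL stock; the first replicate is given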
Target sequence (P08753 whole entry, looked up): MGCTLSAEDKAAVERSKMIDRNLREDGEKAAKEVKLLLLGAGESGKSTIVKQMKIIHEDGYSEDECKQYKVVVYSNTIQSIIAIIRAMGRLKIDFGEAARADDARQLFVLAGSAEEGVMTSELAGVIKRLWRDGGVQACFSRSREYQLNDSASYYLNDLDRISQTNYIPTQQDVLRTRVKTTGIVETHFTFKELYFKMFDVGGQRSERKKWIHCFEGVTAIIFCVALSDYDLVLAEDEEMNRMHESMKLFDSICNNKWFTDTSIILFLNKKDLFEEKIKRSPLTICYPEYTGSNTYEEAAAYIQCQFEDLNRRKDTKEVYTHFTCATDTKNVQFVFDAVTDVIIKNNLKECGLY
Sa growth 42C = S. aureus growth inhibition at 42 and 30 °C, primary screen, LtaS inhibitor project, RN4220, two temperatures; OD600, 20 h, 42 °C; stronger effect = lower value; relative growth, % (no concentration beside the values); 0.53% of 170,000 active; AID 720641, 2013;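 active = growth at 42 °C up to 50% and 20 or more points under that at 30 °C, or under 10% at both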;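 note: 300 nL library stock went into each well; scaled to the means of positive and negative controls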
HCMV UL50-53 inh = inhibitors of HCMV UL50-UL53 interaction, biochemical, HTRF; normalized percent inhibition; inhibition, % (concentration not given with the values); 0.15% of 190,000 active; AID 1918969, 2023;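 active = both replicates at 50% or more, plus weaker picks with an unusually low signal ratio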;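 note: stock transfer was 100 nL into about 20 µL; 0% = negative control wells and 100% = wells with untagged competitor protein; inactives centre near -12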
Sa growth 42C second temp = also measured in Sa growth 42C; calls as there; relative growth, %; measured here: growth at 30 °C;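 optical density after 20 h as mean of two plates; 100% = untreated growth and lower means inhibition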
Numbers without * were called inactive; . = not tested or not shown; & = joins results of further samples.

Each structure is followed by: GIV-Gai inh, Sa growth 42C, Sa growth 42C second temp, HCMV UL50-53 inh
S=C(NCCc1ccncc1)NC1CCCCC1
    102, 122, 94, -19
Cc1nc(N2CCN(C(=O)c3ccco3)CC2)c2c3c(sc2n1)CC(C(C)(C)C)CC3 (stereo not given)
    98, 94, 102, -6
N#Cc1cnn(-c2ccccc2)c1N
    ., 120, 88, -26
O=S(=O)(CCN1C=CC(C(F)(F)F)=NCC1)c1ccc(F)cc1
    97, 116, 95, 2
O=C1c2oc3ccccc3c(=O)c2C(c2cccc(O)c2)N1c1nncs1 (stereo not given)
    106, 102, 96, -212
O=C(C1CCN(S(=O)(=O)c2cccc3cccnc23)CC1)N1CCN(c2ccc(Cl)cc2)CC1
    106, ., ., -14
Cn1nc(C(C)(C)C)cc1C(=O)NN1CCOCC1
    102, 106, 89, -16
O=S(=O)(NCCn1c(CCc2ccccc2)nc2ccccc21)c1cccc2nsnc12
    108, ., ., -47
NS(=O)(=O)c1ccc(CCN2CC3=C(C2=O)C(c2ccccc2)NC(=O)N3)cc1 (stereo not given)
    103, 90, 86, -34
O=C1CCCC2=C1C(c1cccnc1)c1c(ccc3ncccc13)N2 (stereo not given)
    100, 91, 73, -72
CCN1CCN(C(c2cccs2)C(C)NC(=O)C(C)C)CC1 (stereo not given)
    100, 87, 91, .
Cc1nc(Nc2ccc(Br)cc2F)c2c(C)noc2n1
    107, ., ., -26
COC(=O)c1c(NC(=O)CSc2nnc(-c3cccnc3)n2C)sc2c1CCC2
    111, 110, 93, -56
Cc1ccc(N=Cc2ccc(F)cc2)c(C)c1
    ., 96, 78, -27
COc1cc2c(c(OC)c1)C(c1ccc(C)cc1)CC(=O)N2 (stereo not given)
    100, ., ., -4
O=C(COc1ccccc1)Nc1ccc(I)cc1
    106, 70, 87, .
CS(=O)(=O)Nc1ccc(C(=O)N2CCCCC2)cc1
    97, 103, 90, -16
CCN(CC)CCNc1nc2c(c(=O)n(C)c(=O)n2C)n1Cc1ccc(Br)cc1
    100, ., ., -33
COc1cccc2sc(NCc3ccccc3)nc12
    102, 117, 94, .
CCOC(=O)C1=C(C)NC2=C(C(=O)CC(c3ccc(OC)c(OC)c3)C2)C1c1ccccc1Br (stereo not given)
    99, ., ., 1

Later entries.
Each structure is followed by: GIV-Gai inh, Sa growth 42C, Sa growth 42C second temp, HCMV UL50-53 inh
COc1ccc(COc2ncnc3sccc23)cc1F
    ., 89, 98, -17
COc1cc(C2C(C#N)=C(N)Oc3n[nH]c(-c4ccc5c(c4)OCO5)c32)ccc1OC(=O)c1ccco1 (stereo not given)
    102, ., ., -25
COc1ccc(NC(=O)c2oc3ccc(S(=O)(=O)N4CCC5(CC4)OCCO5)cc3c2C)cc1Cl
    102, 88, 99, .
CCOC(=O)c1c(C)c(-c2ccccc2)n(CC(=O)NC(CC)Cc2ccccc2)c1C (stereo not given)
    104, 90, 89, 8
CC(C)c1ccc(NC(=O)c2cn(C3CCCC3)c(=O)c3c2c2ccccc2n3C)cc1
    105, 110, 85, -9
O=C(NC1CCCC1)c1cc2ccccc2c(=O)s1
    113, ., ., -81
Cc1[nH]c(C(=O)N2CCC(CC(=O)NCc3ccc4c(c3)OCO4)CC2)c(C)c1C(=O)OC(C)C
    105, ., ., -11
CCCCc1nn2c(=O)cc(O)nc2s1
    113, 113, 103, .
CCOC(=O)c1c(C)[nH]c(C(=O)N/N=C\c2ccccc2)c1C
    101, 108, 104, 9
O=C1[C@@H]2CSC(c3ccc(C(F)(F)F)cc3)N2C(=O)N1c1ccccc1 (stereo not given in full)
    95, 107, 86, -32
O=C1/C(=C/c2cccs2)CC/C1=C\c1cccs1
    111, 112, 93, -1
COc1ccc(-c2nnc(NC(=O)c3ccc(S(=O)(=O)N4CCCCC4)cc3)o2)cc1
    104, 20, 24, 2
Cc1ccc(Nc2cn[nH]c(=S)n2)cc1
    97, 88, 97, -66
COc1ccc(S(=O)(=O)n2nc(-c3ccco3)nc2NCc2ccc(OC)c(OC)c2)cc1
    102, 112, 83, -1
O=C(NCc1ccccc1)c1cc(=O)nc2sc(-c3ccccc3)nn12
    109, 97, 86, 0
Cc1csc(=O)n1CCC(=O)OCC(=O)c1ccc2ccccc2c1
    ., 86, 98, -63
O=C1c2oc3ccccc3c(=O)c2C(c2ccc(O)cc2)N1c1ccccn1 (stereo not given)
    106, 83, 95, -1
CCOC(=O)C1C(c2ccccc2)C(C(=O)OCC)C1c1ccccc1 (stereo not given)
    ., 98, 95, -18
Cc1cc(=O)n2[nH]c(Cc3ccccc3)nc2n1
    97, ., ., -6
CNc1ncc(C(=O)C(C)(C)C)s1
    102, ., ., -16

Entries from the list above with an NH in an aromatic ring, in the order listed:
Each structure is followed by: GIV-Gai inh, Sa growth 42C, Sa growth 42C second temp, HCMV UL50-53 inh
COc1cc(C2C(C#N)=C(N)Oc3n[nH]c(-c4ccc5c(c4)OCO5)c32)ccc1OC(=O)c1ccco1 (stereo not given)
    102, ., ., -25
Cc1[nH]c(C(=O)N2CCC(CC(=O)NCc3ccc4c(c3)OCO4)CC2)c(C)c1C(=O)OC(C)C
    105, ., ., -11
CCOC(=O)c1c(C)[nH]c(C(=O)N/N=C\c2ccccc2)c1C
    101, 108, 104, 9
Cc1ccc(Nc2cn[nH]c(=S)n2)cc1
    97, 88, 97, -66
Cc1cc(=O)n2[nH]c(Cc3ccccc3)nc2n1
    97, ., ., -6

(more compounds)
Each structure is followed by: GIV-Gai inh, Sa growth 42C, Sa growth 42C second temp, HCMV UL50-53 inh
CCN(CCN(C)C)C(=O)Cn1ncc2c1-c1ccccc1OC2
    98, 97, 92, .
Cc1c(Cl)cccc1NC(=O)c1cc(-c2ccc3c(c2)OCO3)on1
    103, 92, 83, -20
CC(=O)N1CCSc2ccc(S(=O)(=O)Nc3cc(Cl)ccc3C)cc21
    108, ., ., -12
CCCCC(=O)Nc1ccc(Nc2cc(N3CCCC3)nc(C)n2)cc1
    99, ., ., -28
CCN(CC)C(=O)Nc1ccc(NC(=O)N(CC)CC)cc1
    ., 84, 86, -13
CSc1n[nH]c(NCc2cccs2)n1
    98, 104, 89, -11
CCOc1ccc(CCNC(=O)CN2C(=O)COc3ccc(S(=O)(=O)N4CCCC4)cc32)cc1
    105, 115, 90, 4
CC(N)c1ccncc1 (stereo not given)
    102, 88, 92, -28
CCCCc1cc2c(c(NC(C)=O)n1)c(=O)oc1ccccc12
    106, 93, 98, 17
CCN1CCN(c2cc(C)c3cc(NC(=O)/C=C/c4ccc(OC)cc4)ccc3n2)CC1
    106, 117, 101, -7
Cc1ccccc1S(=O)Cc1ccc(C(=O)N2CCCC2)o1 (stereo not given)
    104, 98, 97, .
N#CC(c1ccccc1)c1ccccc1C(=O)c1ccccc1 (stereo not given)
    105, ., ., -10
COc1ccc(NC(=O)c2ccc(F)c(F)c2)c2ccccc12
    ., 98, 92, -4
CSc1nc(NS(=O)(=O)c2cc(C(F)(F)F)cc(C(F)(F)F)c2)nn1C
    103, 97, 100, 4
COc1ccc(/C=C(/NC(=O)c2ccco2)C(=O)N2CCCC2=O)cc1
    99, 106, 83, .
Cc1ccc(CNC(=O)Cn2nc(N3CCN(c4ccccc4)CC3)ccc2=O)cc1
    104, 78, 92, .
O=c1c2c(-c3ccc(F)cc3)csc2[nH]c(=S)n1-c1ccccc1
    99, ., ., -26
COc1ccccc1C(=O)Nc1nc(-c2ccc(Br)cc2)ns1
    100, 100, 89, 8
Cc1cccc(CN2C(=O)c3ccccc3S(=O)(=O)c3ccc(C(=O)N4CCCC4)cc32)c1
    99, 98, 90, -18
O=C(Nc1cccc(Cl)c1)C1CCCN(c2nc3cccnc3s2)C1 (stereo not given)
    105, ., ., -5

Among those listed so far, three have a CF3 group.
Each structure is followed by: GIV-Gai inh, Sa growth 42C, Sa growth 42C second temp, HCMV UL50-53 inh
O=S(=O)(CCN1C=CC(C(F)(F)F)=NCC1)c1ccc(F)cc1
    97, 116, 95, 2
O=C1[C@@H]2CSC(c3ccc(C(F)(F)F)cc3)N2C(=O)N1c1ccccc1 (stereo not given in full)
    95, 107, 86, -32
CSc1nc(NS(=O)(=O)c2cc(C(F)(F)F)cc(C(F)(F)F)c2)nn1C
    103, 97, 100, 4

More results follow.
Each structure is followed by: GIV-Gai inh, Sa growth 42C, Sa growth 42C second temp, HCMV UL50-53 inh
COCC(=O)Nc1ccc(Nc2ccccc2)cc1
    103, 111, 77, -6
CC(=O)Nc1ccc(S(=O)(=O)N2CCC(Oc3ccc(-n4cnnn4)cc3)CC2)cc1
    99, 92, 79, 1
Cc1cccc(Nc2ncnc3c2cnn3C)c1C
    104&106, 104, 90, .
O=C(NN1CC(=O)N(C2CCCC2)C1=O)c1cc2c(s1)CCCC2
    104, 110, 94, -3
CCOC(=O)c1cc(O)c(C(=O)OCC)cc1O
    101, 100, 82, -14
O=C(O)CNc1nnc(-n2cccc2)s1
    99, 110, 77, -9
CCCCN(c1nc2nc(C)c(Cl)c(C)n2n1)S(=O)(=O)c1ccccc1
    100, ., ., -2
COC(=O)c1ccc(NC(=O)N2CCCN(C(=O)c3nonc3N)CC2)cc1
    102, ., ., 9
COc1ccc(CNC(=O)Cn2ccc3cc(S(=O)(=O)N4CCCCCC4)ccc32)c(OC)c1
    99, 109, 104, .
Cc1ccc(CNC(=O)CSc2nc3c(sc4ccccc43)c(=O)n2CCCOC(C)C)cc1
    95, 94, 97, .
CCc1nc2nonc2c2nc3ccccc3n12
    128, 99, 75, -68
CN(C)c1ccc(CN(CC2CCCO2)C(=O)COc2ccccc2Cl)cc1 (stereo not given)
    102, 92, 85, -32
Cc1c(C)n(Cc2ccccc2)c2ccc(C(=O)NCC(C)c3ccccc3)cc12 (stereo not given)
    103, 104, 94, .
CCN(CC)S(=O)(=O)c1ccc(Nc2ccc(-c3ccc4c(c3)OCCO4)nn2)cc1
    102, 99, 88, 6
CNC(=O)COc1ccc(S(=O)(=O)N2CCOCC2)cc1Cl
    102, 99, 95, -7
Nc1ncc(C(=O)OCC2CC2)c(C(F)(F)F)n1
    100, 101, 92, -13
CCS(=O)(=O)c1ccc(-c2ccc(NC(=O)c3ccccc3C)cc2)nn1
    108, ., ., -11
Cc1c(C)n(C(=O)CN2CCC(C(N)=O)CC2)c2ccccc12
    105, 88, 106, -20
CCc1ccc(NC(=O)Cn2c(C(=O)OC)cc3ccsc32)cc1
    99, ., ., 14
CC1CCN(CC(=O)c2cccs2)CC1
    ., 99, 85, -29

2 entries from above in a different format:
> Nc1ncc(C(=O)OCC2CC2)c(C(F)(F)F)n1
- GIV-Gai inh = 100
- Sa growth 42C = 101
- Sa growth 42C second temp = 92
- HCMV UL50-53 inh = -13
> CNC(=O)COc1ccc(S(=O)(=O)N2CCOCC2)cc1Cl
- GIV-Gai inh = 102
- Sa growth 42C = 99
- Sa growth 42C second temp = 95
- HCMV UL50-53 inh = -7

Later entries
Each structure is followed by: GIV-Gai inh, Sa growth 42C, Sa growth 42C second temp, HCMV UL50-53 inh
CC(=O)c1cc2c3c(c1)C1C=CCC1C(c1cccc([N+](=O)[O-])c1)N3CC1CC=CC21 (stereo not given)
    106, ., ., -32
COc1cccc(NC(=O)C(C)n2c(=O)cc(C(F)(F)F)c3c(C)nn(C)c32)c1 (stereo not given)
    102, 96, 88, .
CCSC1=N/C(=C\c2cccc(OC)c2)C(=O)S1
    102, 84, 94, -22
Nc1cccc2c1C(=O)N(CCO)C2=O
    75*, 91, 91, -65
COc1ccc(NC(=O)C(CC(C)C)NS(=O)(=O)c2ccc3nc(C)sc3c2)c(OC)c1 (stereo not given)
    106, 83, 89, 0
COc1ccc(Nc2c3c(nc4ccc(NC(=O)c5cc(Cl)ccc5OC)cc24)CCCC3)cc1OC
    106, 122, 110, -1
CCc1c(C)c(C#N)c2nc3ccccc3n2c1NCc1ccccc1
    ., 91, 89, -2
Cc1ccc(NC(=O)c2cnc3ccc(S(=O)(=O)N(C)C4CCCCC4)cc3c2Cl)cc1F
    100, 96, 79, .
CCCCC1=NN(C(=O)COc2ccccc2C)C(O)(C(F)(F)F)C1 (stereo not given)
    101, ., ., -10
Cc1oc(-c2ccc(Cl)cc2)nc1CN1CCC(C(=O)NC2CCCCC2)CC1
    98, 91, 91, -3
CNS(=O)(=O)c1cc(-c2nn(C)c(=O)c3ccccc23)ccc1C
    101, 101, 82, 9
O=S(=O)(c1ccc(-c2cnc(C3CC3)o2)cc1)N1CCN(c2ccc(F)cc2)CC1
    106, 114, 90, .
COc1ccccc1C(=O)NCc1nc2cccnc2n1Cc1ccc(F)cc1
    107, 108, 88, .
O=C(CCC(=O)N1CCN(c2ccc(Cl)c(Cl)c2)CC1)c1ccccc1
    100, 105, 55, -6
O=C(NCc1ccccn1)c1ccc(-c2nc3ccccc3s2)s1
    ., 76, 80, -60
COCC(C)NCc1cc(=O)oc2cc(C)c(C(C)C)cc12 (stereo not given)
    ., 87, 93, -16

A different layout for part of the listing above.
compound	GIV-Gai inh	Sa growth 42C	Sa growth 42C second temp	HCMV UL50-53 inh
O=C1/C(=C/c2cccs2)CC/C1=C\c1cccs1	111	112	93	-1
COc1ccc(-c2nnc(NC(=O)c3ccc(S(=O)(=O)N4CCCCC4)cc3)o2)cc1	104	20	24	2
Cc1ccc(Nc2cn[nH]c(=S)n2)cc1	97	88	97	-66
